gsp agonist = activates gsp, the McCune-Albright syndrome mutation; gsp mutant cells, cAMP HTRF, 30 min; control for the full effect not named in the record; Potency, µM (series often up to 76.9 µM), for inactives: at the top dose activation (cAMP increase), usual class: activators; 340,000 tested, 0.13% active; AID 624287; active = well fitted activation curve with a large enough effect; inconclusive = small, poorly fitted or top-dose-only effect, or another doubt; inactive = no such curve, though single readings can be large or run the other way; cell line not stated here;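 further: phosphodiesterase inhibitor Ro 20-1724 added with compounds to block cAMP breakdown; potency means the concentration at half of the fitted maximal effect; nearly all actives have a fitted effect of over 60% in size; about a fifth of the inactives were tested at one dose only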
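Cells stably selected in G418 were plated at 2000/well, grown 16-24 hr, then given compounds in DMSO with the PDE inhibitor […] (300 uM solution added) for 30 min at 37C; cAMP was read by HTRF.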
gsp antag = antagonists of gsp mutant (McCune-Albright syndrome). gsp-mutant cells, cAMP HTRF, 30 min; control for the full effect not named in the record. Potency, µM (top dose mostly 76.9 µM), without a hit: at the highest dose activity change, negative = inhibition, most hits filed as inhibitors. 340,000 tested, 0.4% active. AID 624288; active = falling curve of any shape with a large fitted effect; inconclusive = falling curve, mostly with a smaller effect; inactive = flat or rising curve; cell line not stated here;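 further: intracellular cAMP measured with PDE inhibitor Ro 20-1724 present during compound exposure; potency means the concentration at half of the fitted maximal effect; on the % scale 0 is the no-effect control and ±100 the full control effect; nearly all actives have a fitted effect of over 65% in size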
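Cells, 2000/well, grown 16–24 h in DMEM 10% FBS with 0.5 mg/ml G418, then compounds plus […] (300 uM addition stock), 30 min at 37C. cAMP read by HTRF (cAMP-d2 and anti-cAMP antibody-K in lysis buffer) after 30 min RT.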
ClpP mod = qHTS Assay for Activators of ClpP; purified B. subtilis ClpP, FRET peptide cleavage, 20 min; 340,000 tested, 1.9% active; ATP-dependent Clp protease proteolytic subunit (Bacillus subtilis (strain 168)), P80244; Potency, µM (doses to about 57.5 µM), without a hit: at the highest dose activity change, negative = active; active = well fitted falling curve with a large enough effect; inconclusive = small, poorly fitted or top-dose-only effect; inactive = no such curve, though single readings can be large or run the other way; further: potency means the concentration at half of the fitted maximal effect; the source files actives as falling curves though it sought activators and does not explain the sign; nearly all actives have a fitted effect of over 65% in size; many hits overshoot -100%
Target sequence (P80244 whole entry, looked up): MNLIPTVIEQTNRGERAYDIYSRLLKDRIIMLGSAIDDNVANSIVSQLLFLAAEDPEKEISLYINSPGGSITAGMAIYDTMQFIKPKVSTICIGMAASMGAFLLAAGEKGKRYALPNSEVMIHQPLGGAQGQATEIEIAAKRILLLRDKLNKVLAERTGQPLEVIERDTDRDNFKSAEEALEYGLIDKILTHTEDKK
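ClpP 10 microg/mL final, pH 8 Tris/KCl buffer with BSA, glycerol, Tween-20; compound pinned in; FRET-FV substrate; RT 20 min; Ex320/Em430; ΔFRET vs ADEP 5.8 microM, DMSO, no enzyme.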
Menin MLL FP FL = displaces fluorescein MLL peptide from human menin; Fluorescence polarization, fluorescein-MLL peptide displacement from menin; FP activity change, % at 61.4 µM; 290,000 tested, under 10 active; AID 1766; inconclusive = falling polarisation curve, or a change in total fluorescence; inactive = total fluorescence flat and polarisation flat or rising; no compound was filed as active; the % refers to the polarisation; negative = inhibition;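 further: % of control where 0% means no effect; inhibitors lower the polarisation; unlabelled MLL peptide was the positive control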
D2 ag = human D2 receptor agonism in beta-arrestin assay | P14416 | DiscoveRx PathHunter D2 beta-arrestin, luminescence, 90 min; 100% = 57 uM dopamine signal | activation, % (concentration not given with the values) | 360,000 tested, 0.084% active | AID 624465; in the data active = activation above about 40%; inconclusive = about 15% to 40%; inactive = below about 15%; further: compound concentration not given in the record; the text of the record calls up to 30% inactive
Target sequence (P14416 whole entry, looked up): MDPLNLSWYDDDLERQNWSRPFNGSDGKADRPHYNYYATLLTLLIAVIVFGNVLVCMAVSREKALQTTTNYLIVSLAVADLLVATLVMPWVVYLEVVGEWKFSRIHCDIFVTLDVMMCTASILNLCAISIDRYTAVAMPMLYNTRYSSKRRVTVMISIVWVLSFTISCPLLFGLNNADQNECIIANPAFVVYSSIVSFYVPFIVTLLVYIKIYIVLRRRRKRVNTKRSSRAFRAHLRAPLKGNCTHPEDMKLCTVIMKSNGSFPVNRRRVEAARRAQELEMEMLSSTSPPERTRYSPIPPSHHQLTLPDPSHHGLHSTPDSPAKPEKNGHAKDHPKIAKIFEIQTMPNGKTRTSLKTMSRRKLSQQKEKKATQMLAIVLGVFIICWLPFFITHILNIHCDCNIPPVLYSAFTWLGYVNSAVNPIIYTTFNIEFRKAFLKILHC
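Agonist mode: compounds alone added to overnight-plated D2 PathHunter cells for 90 min at 37 C, with 57 uM final dopamine (EC100) defining full response. Beta-arrestin recruitment detected by chemiluminescent reagent, read after 1 h at ambient temperature.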
Sfp inh = blocks B. subtilis Sfp PPTase activity | Potency, µM, inactives show max response, negative = inhibition, hits mostly inhibitors | Biochemical Sfp PPTase activity, qHTS | AID 1490 | 310,000 tested, 3.5% active | Q9F4F7; active means well fitted inhibition curve with a large enough effect; inconclusive means small, poorly fitted or top-dose-only effect, or another doubt; inactive means no such curve, though single readings can be large or run the other way;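 further: the enzyme is Sfp with the accession as filed and its product quenches rhodamine fluorescence; potency means the concentration at half of the fitted maximal effect; 0% = enzyme reaction without inhibitor and -100% = no enzyme wells; top concentration of the series not given in the record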
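Buffer: 50 mM Hepes-Na pH 7.6, 10 mM MgCl2, 0.01% Nonidet P-40, 0.01% BSA. Enzyme 15 nM, pre-exposed to compound 15 min; substrates then added and fluorescence change tracked over 30 min.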
PINK1 modulator = PINK1 expression modulation. PINK1 immunofluorescence, high-content cytometry, 24 h. 410,000 tested, 0.2% active. Potency, µM (series often up to 76.6 µM), inactives show at the highest dose activation (PINK1 increase), actives largely listed as activators; active = well fitted activation curve with a large enough effect; inconclusive = small, poorly fitted or top-dose-only effect; inactive = flat fitted curve, though single readings scatter; cell line not stated here;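 further: potency means the concentration at half of the fitted maximal effect; % of control where 0% means no effect; nearly all actives have a fitted effect of over 65% in size; a mitochondrial uncoupler was the plate control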
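Cells are seeded, rested 12 hours, then given compound at five concentrations or DMSO for 24 hours. After fixation, blocking and antibody staining, PINK1 amount and mitochondrial localization are scored; CCCP serves as control.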
* = called active by the depositor; [ ] = dose if it differs, or a comment.

How did CCOC(=O)CCNC(=O)N1CCCC(C(=O)c2cccc(Cl)c2)C1 (stereo not drawn) do in these assays?
gsp agonist: -2.9%; gsp antag: 2.6%; ClpP mod: -0.9%; Menin MLL FP FL: 6.0; D2 ag: 6.0; Sfp inh: 14.1%; PINK1 modulator: 0.6%

Results for CCOc1ccccc1CNC(=O)C1CCN(c2nc3ccccc3o2)CC1 ?
gsp agonist: -9.0%; gsp antag: -15.7%; ClpP mod: 1.4%; Menin MLL FP FL: 2.3; D2 ag: 4.7; Sfp inh: inconclusive; PINK1 modulator: 0.5%

How did Cc1ccc(S(=O)(=O)NCCSC(C)(C)C)cc1 do in these assays?
gsp agonist: 3.4%; gsp antag: -8.7%; ClpP mod: -3.0%; Menin MLL FP FL: -0.9; D2 ag: 2.7; Sfp inh: 7.3%

Results for CCO/C=C/C(O)(CNC(=O)COc1ccccc1F)C(F)(F)F (stereo not drawn) ?
gsp agonist: -54.6%[inhibitor]; gsp antag: 9.5%; ClpP mod: 0.5%; Menin MLL FP FL: 2.9; D2 ag: -0.6; Sfp inh: 15.8%; PINK1 modulator: inconclusive

How did CC(=O)c1ccc(N2CCN(CC(=O)N(C3CC3)C3CCS(=O)(=O)C3)CC2)c(F)c1 (stereo not drawn) do in these assays?
gsp agonist: 11.0%; gsp antag: 5.7%; ClpP mod: -2.3%; D2 ag: -0.4; PINK1 modulator: -3.3%

What do the screens show for `O=C(Nc1ccc2[nH]ncc2c1)c1cccc(F)c1`?
gsp agonist: 27.2%[15.4 µM]; gsp antag: 5.6%; ClpP mod: -2.9%; Menin MLL FP FL: 0.8; D2 ag: 1.2; Sfp inh: 8.2%; PINK1 modulator: -0.2%

How did COc1ccc(C2/C(=C(/O)c3ccccc3)C(=O)C(=O)N2CCCN2CCOCC2)cc1 (stereo not drawn) do in these assays?
gsp agonist: 12.4%; gsp antag: 2.5%; ClpP mod: 0.7%; Menin MLL FP FL: 1.0; D2 ag: 0.5; Sfp inh: inconclusive; PINK1 modulator: 0.3%

What do the screens show for `O=C(CSCc1ccco1)c1cccs1`?
gsp agonist: 16.5%; gsp antag: 6.5%; ClpP mod: -2.4%; Menin MLL FP FL: 0.5; D2 ag: -0.1; Sfp inh: inconclusive; PINK1 modulator: 2.4%

Results for CC1CN(C(=O)COC(=O)Cc2c(F)cccc2Cl)CC(C)O1 (stereo not drawn) ?
gsp agonist: -26.5%; gsp antag: 7.0%; ClpP mod: -2.6%; D2 ag: 2.8; PINK1 modulator: 0.1%

How did Cc1ccc(S(=O)(=O)N2CCC(C(=O)N3CCN(c4ccccn4)CC3)CC2)cc1C do in these assays?
gsp agonist: 15.1%; ClpP mod: 4.4%; D2 ag: 0.4; PINK1 modulator: 0.4%

How did CN1CCN(CCCC(=O)c2ccc(F)cc2)CC1 do in these assays?
gsp agonist: -0.6%; gsp antag: -5.9%; ClpP mod: 0.8%; Menin MLL FP FL: 5.4; D2 ag: -3.6; Sfp inh: 8.3%

Results for CCOC(=O)C(Cc1ccccc1)NC(C)=O (stereo not drawn) ?
gsp agonist: -10.4%; gsp antag: 0.0%; ClpP mod: -0.5%; Menin MLL FP FL: 1.0; D2 ag: -0.7; Sfp inh: 1.4%; PINK1 modulator: -0.1%

What do the screens show for `COc1cccc(Nc2ncc(C(=O)O)c3ccccc23)c1`?
gsp agonist: -1.0%; gsp antag: -15.0%; ClpP mod: inconclusive; Menin MLL FP FL: 1.8; D2 ag: -3.0; Sfp inh: 10.6%; PINK1 modulator: 1.4%

What do the screens show for `O=C(O)c1ccc(N/N=C/c2ccc(OC(=O)c3ccccc3Cl)cc2)cc1`?
gsp agonist: -5.1%[15.4 µM]; gsp antag: -26.9%; ClpP mod: -1.0%; Menin MLL FP FL: 4.2; D2 ag: -4.2; Sfp inh: -6.8%; PINK1 modulator: 1.4%

How did O=[N+]([O-])c1ccccc1S(=O)(=O)Nc1nc2ccccc2s1 do in these assays?
gsp agonist: -0.2%[15.4 µM]; gsp antag: -16.4%; ClpP mod: -1.3%; Menin MLL FP FL: 2.4; D2 ag: 0.9; Sfp inh: 0.3%; PINK1 modulator: 3.8%

Results for COCC(C)NC(=O)C1c2ccccc2Oc2ccccc21 (stereo not drawn) ?
gsp agonist: 8.9%; gsp antag: -4.2%; ClpP mod: 1.7%; Menin MLL FP FL: 0.2; D2 ag: -4.0; Sfp inh: 13.1%; PINK1 modulator: -1.9%

How did O=C(CNC(=O)OCc1ccccc1)NCC(=O)Oc1ccc([N+](=O)[O-])cc1 do in these assays?
gsp agonist: -3.5%; gsp antag: -10.3%; ClpP mod: -2.7%; D2 ag: -3.2; PINK1 modulator: 5.0%

How did Cc1nc(NN)c2c3c(sc2n1)COC(C)(C)C3 do in these assays?
gsp agonist: 5.4%[15.4 µM]; gsp antag: 13.2%; ClpP mod: -28.0%; Menin MLL FP FL: 7.4; D2 ag: -1.1; Sfp inh: 56.2µM*; PINK1 modulator: 3.1%

What do the screens show for `O=C(c1ccc(SCc2cccc(Br)c2)c([N+](=O)[O-])c1)N1CCN(c2ccccn2)CC1`?
gsp agonist: 13.4%[15.4 µM]; gsp antag: -11.9%; Menin MLL FP FL: -0.3; D2 ag: -7.3; Sfp inh: 3.5%; PINK1 modulator: 0.0%

What do the screens show for `Cc1ccccc1S(=O)(=O)c1c(C)cc(-c2ccccc2)[nH]c1=O`?
gsp agonist: -15.8%; gsp antag: -5.6%; ClpP mod: inconclusive; Menin MLL FP FL: 1.5; D2 ag: -3.3; Sfp inh: 11.7%; PINK1 modulator: 2.2%

Results for COc1ccccc1C(CNC(=O)CSc1ccc2ccccc2c1)N(C)C (stereo not drawn) ?
gsp agonist: 23.5%[15.4 µM]; gsp antag: 0.8%; ClpP mod: 0.9%; D2 ag: -3.4; Sfp inh: 1.9%; PINK1 modulator: 0.9%

How did O=C(CN1CCN(C2CCCCC2)CC1)Nc1ccc(Br)cc1 do in these assays?
gsp agonist: -5.8%[15.4 µM]; gsp antag: -6.7%; Menin MLL FP FL: -2.6; D2 ag: -5.6; Sfp inh: 11.9%; PINK1 modulator: 0.3%

Results for CCC/C=N/Nc1nnc(Cc2ccccc2)c(=O)[nH]1 ?
gsp agonist: 17.5%[15.4 µM]; gsp antag: -4.4%; ClpP mod: 0.4%; Menin MLL FP FL: 1.5; D2 ag: -4.9; Sfp inh: inconclusive; PINK1 modulator: -1.2%

Results for Cc1ccccc1NC(=O)C(=O)NCCCN1CCCC1=O ?
gsp agonist: -21.6%; gsp antag: 12.1%; ClpP mod: -10.4%; D2 ag: -0.5; PINK1 modulator: -1.2%

2 successive records from above, quoted:
How did O=C(CN1CCN(C2CCCCC2)CC1)Nc1ccc(Br)cc1 do in these assays?
gsp agonist: -5.8%[15.4 µM]; gsp antag: -6.7%; Menin MLL FP FL: -2.6; D2 ag: -5.6; Sfp inh: 11.9%; PINK1 modulator: 0.3%

Results for CCC/C=N/Nc1nnc(Cc2ccccc2)c(=O)[nH]1 ?
gsp agonist: 17.5%[15.4 µM]; gsp antag: -4.4%; ClpP mod: 0.4%; Menin MLL FP FL: 1.5; D2 ag: -4.9; Sfp inh: inconclusive; PINK1 modulator: -1.2%

Next section.
What do the screens show for `CCCCN(C)CCNC(=O)Cn1ncc2c(=O)oc3ccc(C)cc3c21`?
gsp agonist: 0.8%; gsp antag: 8.7%; ClpP mod: -0.5%; Menin MLL FP FL: 2.4; D2 ag: -5.8; Sfp inh: 15.1%; PINK1 modulator: 0.5%

How did CC(C)(C)CC(=O)Nc1cc2c3c(c1)CCN3C(=O)CC2 do in these assays?
gsp agonist: -17.4%; gsp antag: 1.6%; ClpP mod: 0.7%; Menin MLL FP FL: -3.7; D2 ag: 0.6; Sfp inh: 10.0%; PINK1 modulator: 1.0%

What do the screens show for `CCC(=O)n1nc(-c2ccco2)nc1N`?
gsp agonist: -17.0%; gsp antag: 8.0%; ClpP mod: 3.1%; Menin MLL FP FL: 0.7; D2 ag: -1.0; Sfp inh: 4.2%; PINK1 modulator: 0.5%

What do the screens show for `O=C(CNC(=O)C1CCCCC1)OCC(=O)c1ccc(Cl)s1`?
gsp agonist: 15.6%[15.4 µM]; gsp antag: 1.5%; Menin MLL FP FL: 0.7; D2 ag: -6.1; Sfp inh: 13.6%; PINK1 modulator: 1.0%

What do the screens show for `Cn1cc(CN2CCCC(C(=O)c3ccc(-c4ccccc4)cc3)C2)cn1` (stereo not drawn)?
gsp agonist: -49.8%[inhibitor]; gsp antag: 8.6%; ClpP mod: -0.8%; Menin MLL FP FL: -3.5; D2 ag: -6.6; Sfp inh: 2.2%; PINK1 modulator: 3.1%

Results for O=C(Nc1cccc(F)c1)C1CC(=O)N(c2ccc(Br)cc2)C1 (stereo not drawn) ?
gsp agonist: -34.3%[inhibitor]; gsp antag: -6.8%; ClpP mod: -1.6%; Menin MLL FP FL: 2.8; D2 ag: -0.7; Sfp inh: 5.5%; PINK1 modulator: 2.9%

Results for Cc1ccc(OCC(=O)Nc2cc(NC(=O)COc3ccc(C)cc3)cc(C(=O)O)c2)cc1 ?
gsp agonist: -10.3%; gsp antag: 0.0%; ClpP mod: -1.0%; Menin MLL FP FL: -0.5; D2 ag: 4.2; Sfp inh: -2.5%; PINK1 modulator: 1.1%

Results for COc1cc(OC)c2c(-c3ccccc3)cc(=O)oc2c1C(CCN1CCOCC1)c1ccc(N(C)C)cc1 (stereo not drawn) ?
gsp antag: 5.0%; ClpP mod: 0.7%; Menin MLL FP FL: -2.9; D2 ag: 1.3; Sfp inh: -21.1%; PINK1 modulator: 5.9%

Results for Clc1cccc(-c2nnc(-c3ccno3)o2)c1 ?
gsp agonist: 1.6%; gsp antag: -5.7%; ClpP mod: -13.9%; Menin MLL FP FL: 3.0; D2 ag: -5.3; Sfp inh: 12.1%; PINK1 modulator: 0.9%

How did C1CCN2CC3CC(CN4CCCC[C@@H]34)[C@H]2C1 do in these assays?
gsp antag: 9.8%; ClpP mod: -2.5%; D2 ag: -0.2; PINK1 modulator: -0.3%

Source: PubChem BioAssay
